D2 agonist – activates the human D2 dopamine receptor; DiscoveRx PathHunter D2 beta-arrestin, luminescence, 90 min; 100% = 57 uM dopamine signal; hit rate 0.084% among 360,000; P14416; AID 624465; activation, % (test concentration not listed); in the data active = activation above about 40%; inconclusive = about 15% to 40%; inactive = below about 15%; also: compound concentration not given in the record; the text of the record calls up to 30% inactive
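DiscoveRx PathHunter D2 beta-arrestin cells (2,100/well) attached overnight, then compound-stimulated 90 min at 37 C in HBSS/10 mM HEPES/0.1% Tween-20 buffer; beta-galactosidase complementation read by luminescence after 1 h at ambient temperature. Dopamine 57 uM final (EC100) as control.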
gsp antag – antagonists of gsp mutant (McCune-Albright syndrome); gsp-mutant cells, cAMP HTRF, 30 min; control for the full effect not named in the record; Potency, µM (series often up to 76.9 µM), without a hit: top-dose activity change, negative = inhibition, most hits filed as inhibitors; hit rate 0.4% among 340,000; AID 624288; active = falling curve of any shape with a large fitted effect; inconclusive = falling curve, mostly with a smaller effect; inactive = flat or rising curve; cell line not stated here;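 also: intracellular cAMP measured with PDE inhibitor Ro 20-1724 present during compound exposure; potency is read from the fitted curve at half-maximal effect; % is scaled to controls: 0 for no effect and ±100 for the full control effect; nearly all actives have a fitted effect of over 65% in size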
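Measurement of cellular cAMP by homogeneous time-resolved fluorescence following a 30 min compound exposure at 37C. The PDE inhibitor […] was present throughout; the assay buffer was DPBS with 0.05% BSA and 0.005% Tween 20.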
Six1-Eya2 blk – inhibitors of human Six1/Eya2 interaction. hit rate 0.56% among 360,000. AlphaScreen GST-Six1/His-Eya2 binding, biochemical; stronger effect = lower value; control for the full effect not named in the record. activity change, % (concentration not given with the values). Q15475+O00167. AID 651725; in the data active = activity change below about -65%; inconclusive = about -30% to -65%; inactive = above about -30%; also: % is scaled to controls: 0 for no effect and ±100 for the full control effect
Target sequence (O00167 whole entry, looked up): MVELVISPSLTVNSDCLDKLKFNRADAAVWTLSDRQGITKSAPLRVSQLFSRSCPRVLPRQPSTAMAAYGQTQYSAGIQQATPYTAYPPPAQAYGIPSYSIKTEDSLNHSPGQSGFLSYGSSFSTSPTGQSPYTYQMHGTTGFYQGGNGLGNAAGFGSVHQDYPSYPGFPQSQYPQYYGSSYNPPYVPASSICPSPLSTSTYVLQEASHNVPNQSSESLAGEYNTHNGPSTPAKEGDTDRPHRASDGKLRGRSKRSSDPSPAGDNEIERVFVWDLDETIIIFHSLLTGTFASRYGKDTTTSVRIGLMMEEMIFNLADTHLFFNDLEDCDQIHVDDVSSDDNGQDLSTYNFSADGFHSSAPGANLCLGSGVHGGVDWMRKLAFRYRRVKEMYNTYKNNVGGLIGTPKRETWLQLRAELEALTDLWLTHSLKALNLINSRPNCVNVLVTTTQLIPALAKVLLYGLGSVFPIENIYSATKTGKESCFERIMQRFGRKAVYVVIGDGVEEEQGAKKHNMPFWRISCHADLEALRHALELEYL
Target sequence (Q15475 whole entry, looked up): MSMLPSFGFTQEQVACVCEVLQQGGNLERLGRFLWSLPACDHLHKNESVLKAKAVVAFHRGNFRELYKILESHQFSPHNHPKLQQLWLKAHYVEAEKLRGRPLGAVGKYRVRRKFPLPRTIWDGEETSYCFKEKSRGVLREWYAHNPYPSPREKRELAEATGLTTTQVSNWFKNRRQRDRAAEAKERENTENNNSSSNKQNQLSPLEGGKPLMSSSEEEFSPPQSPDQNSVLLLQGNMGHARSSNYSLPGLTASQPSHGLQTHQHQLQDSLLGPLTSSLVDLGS
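Homogeneous AlphaScreen proximity assay pairing GST-Six1 with His-tagged Eya2 (added as 5X mix: 250 nM and 500 nM) in 50 mM Tris pH 8.0, 300 mM NaCl, 1 mM TCEP. Glutathione donor and nickel acceptor beads; 1 h, 37 °C, dark.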
CtBP-E1A inh – inhibitors of CtBP/E1A interaction | activity change, % (no concentration beside the values) | AlphaScreen GST-E1A/His-CtBP binding, 1536-well; stronger effect = lower value; control for the full effect not named in the record | AID 651724 | hit rate 0.49% among 340,000; in the data active means activity change below about -65%; inconclusive means about -30% to -65%; inactive means above about -30%; also: % is scaled to controls: 0 for no effect and ±100 for the full control effect; compound concentration not given in the record
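AlphaScreen with 125 nM GST-E1A and 125 nM His-CtBP (5X stocks) in Tris pH 8.0, 300 mM NaCl, BSA, Tween 20, TCEP. Compounds preincubated 2 h at 37 deg C, then glutathione donor/nickel acceptor beads added for 1 h at 37 deg C in dark.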
D2 potentiator – potentiates the human D2 dopamine receptor allosterically | P14416 | DiscoveRx D2 beta-arrestin cells, luminescence, 90 min; 100% = 57 uM dopamine signal | potentiation, % (no concentration beside the values) | hit rate 0.23% among 360,000; active = potentiation of 50% or more; inconclusive = 30% to 50%; inactive = 30% or less;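 also: compound concentration not given in the record; tested on top of an EC20 dose of dopamine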
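PathHunter beta-arrestin assay in DiscoveRx D2 cells. Compounds were added with an EC20 of dopamine (50 nM final) for 90 min at 37 deg C. Luminescence was read 1 h after detection reagent, with 57 uM dopamine as the EC100 control.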
gsp ag – agonists of gsp mutant (McCune-Albright syndrome); gsp mutant cells, cAMP HTRF, 30 min; control for the full effect not named in the record; Potency, µM (doses to about 76.9 µM), without a hit: at the top dose activation (cAMP increase), hits mostly activators; hit rate 0.13% among 340,000; AID 624287; active = well fitted activation curve with a large enough effect; inconclusive = small, poorly fitted or top-dose-only effect, or another doubt; inactive = no such curve, though single readings can be large or run the other way; cell line not stated here;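 also: phosphodiesterase inhibitor Ro 20-1724 added with compounds to block cAMP breakdown; potency is read from the fitted curve at half-maximal effect; nearly all actives have a fitted effect of over 60% in size; about a fifth of the inactives were tested at one dose only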
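Cells stably selected in G418 were plated at 2000/well, grown 16-24 hr, then given compounds in DMSO with the PDE inhibitor […] (300 uM solution added) for 30 min at 37C; cAMP was read by HTRF.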
* hit, by the source's call; ? = inconclusive; nt = not tested or not shown; [ ] = dose if it differs, or a comment.

SMILES	D2 agonist	gsp antag	Six1-Eya2 blk	CtBP-E1A inh	D2 potentiator	gsp ag
CC(C)[C@H](NC(=O)OCc1ccccc1)C(=O)OCC(=O)NCCc1ccccc1	-9.1	-4%	9	5	-13	1%
CCC(=O)Nc1nc(CC(=O)Nc2ccccc2OC)cs1	-3.6	2%	-8	-4	-23	19%
Cc1nc2cc(NC(=O)NCc3ccco3)ccc2n1C	-1.0	7%	0	2	2	22%
CC(C)OP(=O)(OC(C)C)C(Nc1ccccc1)c1cccnc1 (stereo not drawn)	-0.6	-19%	-6	9	-10	3%[15.4 µM]
CSc1nnc(Cn2c(=O)sc3ccccc32)n1CCc1ccccc1	-9.5	-7%	2	-6	-6	-57%[inhibitor]
CN1CCN(NC(=O)c2ccc(S(=O)(=O)N3CC4(C)CC3CC(C)(C)C4)cc2)CC1 (stereo not drawn)	-5.0	7%	5	nt	-14	12%
COc1ccc(S(N)(=O)=O)cc1C(=O)OCC1CCCCC1	-0.6	-9%	-1	-3	-7	-6%[15.4 µM]
COc1cc(NC(=O)c2cc3cccc(OC)c3o2)cc(C(=O)Nc2cccc(C(F)(F)F)c2)c1	8.7	-16%	6	2	10	nt
O=C(COC(=O)c1cccc(F)c1)Nc1cccc(S(=O)(=O)N2CCCCC2)c1	2.4	nt	-21	-4	-3	-39%[inhibitor]
COc1cc(CNCc2ccco2)ccc1OCc1ccccc1	-0.3	-2%	-8	-5	-14	-10%
CC(=O)Nc1c2c(nn1-c1cccc(C)c1)CSC2	-1.9	-1%	0	nt	-8	-1%
CCOC(=O)Cn1c(=O)c2c(nc3n2CCCN3Cc2ccccc2)n(C)c1=O	0.8	-7%	-5	0	3	0%
Cc1ccccc1Cn1c(C)c(C(=O)NCc2cccc(Cl)c2)sc1=O	-2.0	nt	-4	-6	-2	nt
Cn1cnnc1SCCC(=O)Nc1ccc(Cl)cc1	-2.0	2%	-1	-3	3	24%
O=S(=O)(Cc1cc(Cl)nc(-c2ccccc2)n1)c1ccccc1	-1.0	-19%	8	-6	-16	-54%[inhibitor]
CC1CCN(CCCn2c(SCC(=O)NC3CCCC3)nc3ccccc3c2=O)CC1	0.6	6%	0	0	-34	?
CN1C[C@@H]2C[C@@H](c3ccc(C#CC(C)(C)O)s3)N3CCC[C@@]23C1=O	-2.1	8%	0	6	-5	1%
O=C(c1ccc([N+](=O)[O-])cc1)N1C=CC(C(F)(F)F)=NCC1	7.8	nt	3	15	12	1%[15.4 µM]
CCCCn1c(N)c(N(CC)C(=O)c2ccc(C#N)cc2)c(=O)[nH]c1=O	-2.9	3%	8	29	-2	-20%
CCC1=C(c2ccc(OC)cc2)CCC(C(=O)O)C1C (stereo not drawn)	1.6	-12%	17	0	8	-14%
NNC(=O)C1C(O)CCC2CN3CCc4c([nH]c5ccccc45)C3CC21 (stereo not drawn)	5.4	-12%	0	-1	-26	-2%
CC[C@@]1(c2ccccc2)C(=O)N(C(=O)OC)N1C(=O)OC	-0.2	8%	6	3	-6	nt
C#CCOCCOCCOCCNc1nc(N2CCN(C(=O)[C@H](C)n3cc(CCC(=O)O)nn3)CC2)nc(N2CCN(C(=O)[C@H](Cc3ccc(O)cc3)n3cc(CCO)nn3)CC2)n1	1.4	-5%	6	3	-7	nt
Cc1cccc(C)c1NC(=O)CNC(=O)C(NC(=O)c1ccc(C(C)(C)C)cc1)C(C)C (stereo not drawn)	-0.9	0%	13	4	-2	-36%[inhibitor]
CCc1nc2ccc(C(=O)N3CCN(C(C)=O)CC3)cn2c1N(CCC(C)C)CCN(C)C	-6.3	nt	-5	0	-13	nt

Individual results from the results shown.
CSc1nnc(Cn2c(=O)sc3ccccc32)n1CCc1ccccc1 in D2 potentiator: -6
CC(=O)Nc1c2c(nn1-c1cccc(C)c1)CSC2 in D2 agonist: -1.9
CCc1nc2ccc(C(=O)N3CCN(C(C)=O)CC3)cn2c1N(CCC(C)C)CCN(C)C in CtBP-E1A inh: 0
Cc1nc2cc(NC(=O)NCc3ccco3)ccc2n1C in CtBP-E1A inh: 2
CCC(=O)Nc1nc(CC(=O)Nc2ccccc2OC)cs1 in D2 potentiator: -23

In the list so far, these contain an aryl thioether with sulfur outside any ring.
SMILES	D2 agonist	gsp antag	Six1-Eya2 blk	CtBP-E1A inh	D2 potentiator	gsp ag
CSc1nnc(Cn2c(=O)sc3ccccc32)n1CCc1ccccc1	-9.5	-7%	2	-6	-6	-57%[inhibitor]
Cn1cnnc1SCCC(=O)Nc1ccc(Cl)cc1	-2.0	2%	-1	-3	3	24%
CC1CCN(CCCn2c(SCC(=O)NC3CCCC3)nc3ccccc3c2=O)CC1	0.6	6%	0	0	-34	?

For convenience, 4 of the compounds above.
SMILES	D2 agonist	gsp antag	Six1-Eya2 blk	CtBP-E1A inh	D2 potentiator	gsp ag
COc1ccc(S(N)(=O)=O)cc1C(=O)OCC1CCCCC1	-0.6	-9%	-1	-3	-7	-6%[15.4 µM]
COc1cc(NC(=O)c2cc3cccc(OC)c3o2)cc(C(=O)Nc2cccc(C(F)(F)F)c2)c1	8.7	-16%	6	2	10	nt
O=C(COC(=O)c1cccc(F)c1)Nc1cccc(S(=O)(=O)N2CCCCC2)c1	2.4	nt	-21	-4	-3	-39%[inhibitor]
COc1cc(CNCc2ccco2)ccc1OCc1ccccc1	-0.3	-2%	-8	-5	-14	-10%

Next part:
SMILES	D2 agonist	gsp antag	Six1-Eya2 blk	CtBP-E1A inh	D2 potentiator	gsp ag
O=C(NCC1CCCCC1)c1ccc2sc([C@H]3C[C@H](O)[C@@H](CO)O3)nc2c1	-2.6	nt	-3	-4	-5	nt
Cc1ccc(-c2csc(C(O)c3ccc(F)cc3)n2)cc1C (stereo not drawn)	3.9	nt	4	9	-10	nt
Cc1ccc(OCC(=O)Nc2ccc(S(=O)(=O)N3CCOCC3)cc2)c(Br)c1	-0.5	0%	7	0	-4	?
NS(=O)(=O)c1cc(C(=O)NNC(=O)c2ccc3c(c2)OCO3)ccc1Cl	-3.6	11%	2	4	-1	-14%[15.4 µM]
CCOc1ccccc1N(C)C(=O)Cn1ncc2c([nH]c3ccc(C)cc32)c1=O	-3.2	-10%	-3	-11	-8	13%
C=CC[C@@H](CC(=O)N[C@H](CO)Cc1ccccc1)C(=O)N[C@H](COC(=O)[C@@H](CC=C)CC(=O)OC(C)(C)C)Cc1c[nH]c2ccccc12	0.1	-19%	-1	nt	-2	-29%
COc1ccc(C(=O)COC(=O)c2ccc(N(C)C)cc2)cc1	-0.2	13%	0	7	-2	?
C/C(=C\c1ccccc1)CN1CCC(C(=O)N2CCCC(C)C2)CC1 (stereo not drawn)	1.0	-7%	0	nt	-21	-23%
N=c1c(C(=O)NCc2ccccc2)cc2c(=O)n3ccccc3nc2n1Cc1ccco1	-6.4	-2%	-7	-4	-40	7%
CCN1CCc2c(OCC(=O)Nc3ccc(C)cc3)cccc2C1=O	-1.3	-10%	-5	8	-3	7%
O=C(O)C1[C@H]2C(=O)N(C3CCCC3)C[C@]23C=C[C@H]1O3 (stereo partly drawn)	-0.4	0%	5	7	2	-4%
CCCc1cc(=O)n2[nH]c(NCc3ccc(OC)c(OC)c3)nc2n1	4.4	1%	9	7	-5	-3%
CN1CCN(S(=O)(=O)c2cccc(C(=O)Nc3nc(-c4ccccc4)cs3)c2)CC1	-1.4	-13%	-21	2	-19	-57%[inhibitor]
COC(=O)c1cccnc1-n1c(=O)c2cccnc2n(Cc2ccc([N+](=O)[O-])cc2)c1=O	-3.3	-1%	-7	nt	-13	?
CSc1ccccc1CNc1nc(NCC2CC2)nc2ccsc12	5.4	nt	-17	-14	-21	nt
Cc1c(CCC(=O)N[C@@H](CCCNC(N)=O)C(=O)O)c(=O)oc2cc3oc4c(c3cc12)CCCC4	4.5	-18%	-4	-4	-6	-17%
COc1ccc(Cl)cc1NC(=O)COC(=O)c1cc(NS(=O)(=O)c2cccs2)ccc1O	-3.0	-5%	1	2	-14	-9%[15.4 µM]
O=[N+]([O-])c1ccc(N/N=C/c2cccnc2)cc1	3.8	-6%	-20	0	-5	1%[15.4 µM]
Oc1cc2ccccc2cc1-c1n[nH]c(=S)o1	-2.1	28µM*	-12	-9	-3	12%
Cc1ccc2cc(CN(CC3CCCO3)S(=O)(=O)c3c(C)ccc4nsnc34)c(=O)[nH]c2c1 (stereo not drawn)	-0.3	-5%	1	7	8	0%
Cc1ccc(-n2c(C)cc(/C=N/NC(=O)Cn3c4ccccc4c(=O)c4ccccc43)c2C)cc1	-2.9	-24%	-16	-8	-7	-1%[15.4 µM]
CN1CCN(CCNC(=O)Nc2ccccc2[N+](=O)[O-])CC1	9.5	9%	-2	-3	-18	-31%[inhibitor]
Cc1c(NC(=O)Cn2cc([N+](=O)[O-])cn2)c(=O)n(-c2ccccc2)n1C	-3.2	17%	-16	14	-9	1%[15.4 µM]
CC(=O)c1cccc(NC(=O)C2(c3ccccc3)CC2(Cl)Cl)c1 (stereo not drawn)	-4.1	4%	-4	-3	-3	-13%[15.4 µM]
C=CCn1cc(C(=O)NCCOC)c(=O)c2cc(S(=O)(=O)N3CCCCCC3)ccc21	-5.6	-7%	1	nt	-3	-1%
Fc1ccc(CNCc2ccco2)cc1	-3.1	15%	4	5	-8	23%
Cc1ccc(N2CC(C(=O)Nc3c(C)n(C)n(-c4ccccc4)c3=O)CC2=O)cc1 (stereo not drawn)	-0.7	5%	0	3	-4	9%

A second format for part of the listing above:
Compound: COc1ccc(C(=O)COC(=O)c2ccc(N(C)C)cc2)cc1
- D2 agonist: -0.2
- gsp antag: 13%
- Six1-Eya2 blk: 0
- CtBP-E1A inh: 7
- D2 potentiator: -2
- gsp ag: ?

Compound: C=CCn1cc(C(=O)NCCOC)c(=O)c2cc(S(=O)(=O)N3CCCCCC3)ccc21
- D2 agonist: -5.6
- gsp antag: -7%
- Six1-Eya2 blk: 1
- CtBP-E1A inh: nt
- D2 potentiator: -3
- gsp ag: -1%

Assay outcomes deposited in PubChem BioAssay by National Center for Advancing Translational Sciences (NCATS).
